Vaccinia Venus – inhibitors of vaccinia virus (Venus reporter); Vaccinia virus Venus reporter expression, fluorescence; Potency, µM (top dose mostly 36.5 µM), for inactives: top-dose activity change, negative = inhibition, actives largely listed as inhibitors; actives 0.46% (n = 330,000); AID 720580; active means well fitted inhibition curve with a large enough effect; inconclusive means small, poorly fitted or top-dose-only effect; inactive means no such curve, though single readings can be large or run the other way; tested in A549 cells; note: nearly all actives have a fitted effect of over 30% in size; inactives centre near -10
Vaccinia mCherry – vaccinia inhibition (mCherry reporter); Vaccinia virus mCherry reporter infection, fluorescence; about a quarter of the inactives have no number; Potency, µM (titrated, usually from 36.5 µM), for the others: top-dose activity change, negative = inhibition, actives largely listed as inhibitors; actives 0.63% (n = 310,000); AID 720579; active = well fitted inhibition curve with a large enough effect; inconclusive = small, poorly fitted or top-dose-only effect; inactive = no such curve, though single readings can be large or run the other way; tested in A549 cells; note: nearly all actives have a fitted effect of over 35% in size; inactives centre near -10
An asterisk follows results filed as active; [ ] = dose if it differs, or a comment. % is set by controls: 0 for no effect and ±100 for the full control effect; potency is the fitted concentration of half-maximal effect.

`CCC1(c2ccccc2)NC(=O)N(CC(=O)NCc2ccccc2OC)C1=O` (stereo unspecified) gave Vaccinia Venus -9% and Vaccinia mCherry -16%.
For CC(C)(c1ccccc1)c1ccc(OCC2CO2)cc1 (stereo unspecified) the results were Vaccinia Venus -9% and Vaccinia mCherry -8%.
Cc1ccc(-c2nnc(Nc3ccc(OCC(N)=O)cc3)c3ccccc23)cc1S(=O)(=O)N(C)C was read as Vaccinia Venus -19% and Vaccinia mCherry -26%.
For CC(=O)Nc1ccc(NC(=O)c2nc(S(=O)(=O)Cc3cccc(C)c3)ncc2Cl)cc1 the results were Vaccinia Venus -8% and Vaccinia mCherry inactive.
`Cc1noc(NS(=O)(=O)c2ccc(NC(=O)CSc3nc4c(cc3C#N)CCCC4)cc2)c1C` gave Vaccinia Venus 1% and Vaccinia mCherry inactive.
Screening CCOC(=O)Cn1cnc2c(nnn2-c2cccc(Cl)c2)c1=O returned Vaccinia Venus -15% and Vaccinia mCherry -14%.
`Cc1ccc(-c2nc(S(=O)(=O)c3ccc(C)cc3)c(SCC(=O)NCC3CCCO3)o2)cc1` (stereo unspecified) gave Vaccinia Venus -7% and Vaccinia mCherry inconclusive.
O=[N+]([O-])c1ccc(Cl)c(NC(=S)N2CCCC2)c1 was read as Vaccinia Venus 11% and Vaccinia mCherry inactive.
For Nc1c(-c2nc(-c3cccs3)no2)nnn1-c1cccc(F)c1 the results were Vaccinia Venus -5% and Vaccinia mCherry -6%.
For Cc1ccc(OCC(=O)N2c3ccccc3CC2C)c([N+](=O)[O-])n1 (stereo unspecified) the results were Vaccinia Venus -4% and Vaccinia mCherry inactive.
For COc1ccccc1NS(=O)(=O)c1ccc2[nH]c(=O)[nH]c2c1 the results were Vaccinia Venus -10% and Vaccinia mCherry -23%.
Screening COc1ccc(Oc2nc3ccccc3n(C)c2=O)cc1 returned Vaccinia Venus -8% and Vaccinia mCherry inactive.
Screening Cc1onc(-c2c(Cl)cccc2Cl)c1C(=O)NN1CCCCCC1 returned Vaccinia Venus -15% and Vaccinia mCherry -3%.
For O=C(c1ccc2c(c1)N(Cc1ccc(Cl)cc1)C(=O)c1ccccc1S2(=O)=O)N1CCN(Cc2ccccc2)CC1 the results were Vaccinia Venus -21% and Vaccinia mCherry -14%.
For CCCCCn1c(=N)n(CC(O)COc2cccc(C)c2)c2ccccc21 (stereo unspecified) the results were Vaccinia Venus 10µM* and Vaccinia mCherry 10µM*.
For COc1ccc(C(C(=O)NCc2ccccc2)N(C(=O)Cn2nnc3ccccc32)c2ccc(F)cc2)cc1 (stereo unspecified) the results were Vaccinia Venus -21% and Vaccinia mCherry -10%.
`Cc1onc(-c2c(Cl)cccc2Cl)c1C(=O)Nc1ccc(C(N)=O)cc1` gave Vaccinia Venus -1% and Vaccinia mCherry inactive.
For O=C(Nc1cccc(S(=O)(=O)N2CCCCC2)c1)c1ccc([N+](=O)[O-])o1 the results were Vaccinia Venus 10µM* and Vaccinia mCherry 11µM*.
`COc1ccccc1CN1CCCC(n2cc(C(=O)N3CCCC3)nn2)C1` (stereo unspecified) gave Vaccinia Venus -2% and Vaccinia mCherry -9%.
Screening Cc1nc(N)nc(N)c1-c1ccc([N+](=O)[O-])cc1 returned Vaccinia Venus inconclusive and Vaccinia mCherry inconclusive.
For COCCNC(=S)Nc1ccc(S(=O)(=O)Nc2ncccn2)cc1 the results were Vaccinia Venus -26% and Vaccinia mCherry inactive.
Screening CCc1nnc(NC(=O)CSc2nnc3c(C)cc4c(C)ccc(C)c4n23)s1 returned Vaccinia Venus -24% and Vaccinia mCherry inconclusive.
`CCc1ccccc1NC(=O)CN(C)S(=O)(=O)c1ccc2c(c1)c(=O)n(C)c(=O)n2C` gave Vaccinia Venus -3% and Vaccinia mCherry -14%.
Screening COc1ccc(S(=O)(=O)N2CCCCCC2)cc1C(=O)N(C)Cc1ccc(C(C)(C)C)cc1 returned Vaccinia Venus -28% and Vaccinia mCherry inconclusive.
For OCCCc1nc2n(n1)C(c1ccccc1)C=C(c1ccccc1)N2 (stereo unspecified) the results were Vaccinia Venus -29% and Vaccinia mCherry inconclusive.
For CC1(C)C(=O)C2(CCCCC2)C(=O)OC1c1cccc([N+](=O)[O-])c1 (stereo unspecified) the results were Vaccinia Venus -8% and Vaccinia mCherry -10%.
For CCOc1cc(C(=O)Nc2cccc(C(C)=O)c2)ccc1OCC(=O)N1CCCCC1 the results were Vaccinia Venus -1% and Vaccinia mCherry -11%.
`CC(C)Oc1ccc(CNC(=O)CN2C(=O)CCc3cc(S(=O)(=O)N4CCCCC4)ccc32)cc1` gave Vaccinia Venus -20% and Vaccinia mCherry -16%.
`CCOC(=O)[C@]12Cc3cc(OC)ccc3[C@H]1N(CC(=O)OC)C(=O)c1ccccc12` gave Vaccinia Venus -4% and Vaccinia mCherry 4%.
Screening CC1CCC2(CC1)SCC(=O)N2c1ccccc1 (stereo unspecified) returned Vaccinia Venus -22% and Vaccinia mCherry inconclusive.
Screening O=C(N/N=C/c1ccccc1C(=O)O)c1cccc(S(=O)(=O)Nc2cc(Cl)ccc2Cl)c1 returned Vaccinia Venus 1% and Vaccinia mCherry -22%.
Screening C[C@H]1CCC[C@]2(O[C@@H](CCO)C[C@@H](O)[C@@H]2O)O1 returned Vaccinia Venus -5% and Vaccinia mCherry inactive.
`COc1ccc(-n2nnnc2C(c2ccnc3ccccc23)N2CCC3(CC2)C(=O)NCN3c2ccccc2)cc1` (stereo unspecified) gave Vaccinia Venus -13% and Vaccinia mCherry inactive.
For O=S(=O)(NC(=S)Nc1ccccc1)c1ccc(F)cc1 the results were Vaccinia Venus 5% and Vaccinia mCherry inconclusive.
For CC(=O)CCC(=O)N1CCC(n2c(C3CCCO3)nc3cc(C(F)(F)F)ccc32)CC1 (stereo unspecified) the results were Vaccinia Venus -29% and Vaccinia mCherry -7%.
`O=C(c1ccccc1)N1CCN(c2ccc(NCc3ccc4c(c3)OCO4)cc2)CC1` gave Vaccinia Venus 7% and Vaccinia mCherry inconclusive.
`COc1ccccc1N1CCN(C2CCCN(Cc3ccccc3OCCO)C2)CC1` (stereo unspecified) gave Vaccinia Venus -3% and Vaccinia mCherry -6%.
CSC1=NS(=O)(=O)c2c(C)nn(C)c2S1 was read as Vaccinia Venus -5% and Vaccinia mCherry -3%.
CC(C)(C)OC(=O)NNc1c2ccccc2nc2ccccc12 was read as Vaccinia Venus -20% and Vaccinia mCherry -28%.
`Cc1ccc(C)c(Cn2c(=O)n(CCCC(=O)NCc3ccco3)c(=O)c3ccccc32)c1` gave Vaccinia Venus -7% and Vaccinia mCherry -13%.
O=C(CN(C(=O)c1csnn1)c1cccc2ccccc12)NCc1ccccc1 was read as Vaccinia Venus -3% and Vaccinia mCherry -1%.
`O=c1oc2ccccc2n1Cn1c(=O)oc2ccccc21` gave Vaccinia Venus 1% and Vaccinia mCherry -8%.
Cc1ccc(-c2nnc3ccccc3c2C(=O)Nc2ccccc2F)cc1 was read as Vaccinia Venus -9% and Vaccinia mCherry -19%.
Cc1ccc2c(c1)C(c1ccccc1)CC(=O)O2 (stereo unspecified) was read as Vaccinia Venus -3% and Vaccinia mCherry -11%.
Screening Cc1cccc(C(=O)O/N=C(/c2ccccc2)c2ccncc2)c1 returned Vaccinia Venus -9% and Vaccinia mCherry -14%.
`Cc1oc2c(C)c3oc(=O)c(CCC(=O)NCCCn4ccnc4)c(C)c3cc2c1C` gave Vaccinia Venus -6% and Vaccinia mCherry -15%.
O=C1NC(c2ccccc2)C(C(=O)c2cccs2)=C1O (stereo unspecified) was read as Vaccinia Venus -7% and Vaccinia mCherry -6%.
Screening Brc1cccc(-c2nn(-c3ccccc3)c3c2cnc2cc4c(cc23)OCO4)c1 returned Vaccinia Venus 8% and Vaccinia mCherry 4%.
Screening COc1ccc(N(CC(=O)NN=C2CCCCCCC2)S(=O)(=O)c2ccccc2)cc1 returned Vaccinia Venus -13% and Vaccinia mCherry inactive.
For COc1cc(OC)cc(C(=O)NCC(=O)Nc2ccc(OC)c(Cl)c2)c1 the results were Vaccinia Venus -21% and Vaccinia mCherry -14%.
Screening COc1ccc(CCNC(=O)CC(=O)N/N=C/c2ccc(C(=O)O)cc2)cc1OC returned Vaccinia Venus -7% and Vaccinia mCherry inactive.
Screening Cc1ccc(CS(=O)(=O)c2ncc(Cl)c(C(=O)Nc3nc4ccc(C)cc4s3)n2)cc1 returned Vaccinia Venus inconclusive and Vaccinia mCherry inconclusive.
Screening CC1CC(C)(C)NC(=S)N1CC(=O)NCc1ccc2c(c1)OCO2 (stereo unspecified) returned Vaccinia Venus 6% and Vaccinia mCherry inactive.
CCOc1ccc(Cn2ccnc2CCl)cc1[N+](=O)[O-] was read as Vaccinia Venus 1%.
`C=C[C@](C)(CC[C@@]1(C)C(C)CC(OC2OC(C)C(OC3OC(COC(C)=O)C(O)C(O)C3O)C(O)C2O)[C@@]2(C)C(C)=CCCC12)OC1OC(C)C(O[C@@H]2O[C@@H](C)C(O)C(O)[C@H]2O)C(O)C1O` (stereo partly specified) gave Vaccinia Venus -15% and Vaccinia mCherry -7%.
Screening COC(=O)c1c(-c2ccsc2)sc2ccc(-c3cc(OC)c(OC)c(OC)c3)cc12 returned Vaccinia Venus -16% and Vaccinia mCherry -23%.
Cc1ccc(C(=O)Nc2onc(C)c2C#N)cc1 was read as Vaccinia Venus -14% and Vaccinia mCherry inactive.
For CC(=O)Nc1cccc(NC(=O)c2ccc(S(=O)(=O)NCc3ccco3)cc2)c1 the results were Vaccinia Venus -12% and Vaccinia mCherry -12%.
For c1ccc(CSc2ccc(-c3cccnc3)nn2)nc1 the results were Vaccinia Venus 1% and Vaccinia mCherry inactive.
For COc1ccccc1NC(=S)N(Cc1ccco1)Cc1cc2cccc(C)c2[nH]c1=O the results were Vaccinia Venus -18% and Vaccinia mCherry -22%.

Six structures from above, ordered by SMILES length, falling.
Screening Cc1ccc(CS(=O)(=O)c2ncc(Cl)c(C(=O)Nc3nc4ccc(C)cc4s3)n2)cc1 returned Vaccinia Venus inconclusive and Vaccinia mCherry inconclusive.
Screening Brc1cccc(-c2nn(-c3ccccc3)c3c2cnc2cc4c(cc23)OCO4)c1 returned Vaccinia Venus 8% and Vaccinia mCherry 4%.
For COc1cc(OC)cc(C(=O)NCC(=O)Nc2ccc(OC)c(Cl)c2)c1 the results were Vaccinia Venus -21% and Vaccinia mCherry -14%.
Screening CC1CC(C)(C)NC(=S)N1CC(=O)NCc1ccc2c(c1)OCO2 (stereo unspecified) returned Vaccinia Venus 6% and Vaccinia mCherry inactive.
O=C1NC(c2ccccc2)C(C(=O)c2cccs2)=C1O (stereo unspecified) was read as Vaccinia Venus -7% and Vaccinia mCherry -6%.
For c1ccc(CSc2ccc(-c3cccnc3)nn2)nc1 the results were Vaccinia Venus 1% and Vaccinia mCherry inactive.

Later entries
COc1cccc(-n2cc(C(=O)OCc3ccc(F)c(F)c3)c3ccccc3c2=O)c1 was read as Vaccinia Venus -15% and Vaccinia mCherry -11%.
CCN(c1ccccc1)S(=O)(=O)c1ccc(Cl)c(NC(=O)COC(=O)c2ccc(O)cc2)c1 was read as Vaccinia Venus -14% and Vaccinia mCherry -25%.
Screening CCN(CC(=O)NCc1ccc(Cl)cc1)C(=O)NCc1ccc(Cl)cc1 returned Vaccinia Venus -25% and Vaccinia mCherry -9%.
`C#CCOCCOCCOCCNc1nc(N2CCN(C(=O)C([C@@H](C)CC)n3cc(C(N)COC(=O)C(F)(F)F)nn3)CC2)nc(N2CCN(C(=O)[C@H](CCC(=O)O)n3cc(C(N)CC(C)C)nn3)CC2)n1` (stereo partly specified) gave Vaccinia Venus -11% and Vaccinia mCherry inactive.
`COc1ccc(C2CC(c3ccc(F)cc3)Nc3nc(N)nn32)cc1OC` (stereo unspecified) gave Vaccinia Venus 1% and Vaccinia mCherry -6%.
Screening O=C(Nc1nc(-c2ccccc2)c(-c2ccccc2)o1)c1ccc(F)cc1 returned Vaccinia Venus inconclusive and Vaccinia mCherry inconclusive.
For CC(=O)Nc1ccc(-c2cc(-c3ccc(NC(C)=O)cc3)nc(-c3ccccc3)n2)cc1 the results were Vaccinia Venus -9% and Vaccinia mCherry -5%.
For Oc1c(Br)cc(/C=N/NC(=S)NCc2ccco2)cc1Br the results were Vaccinia Venus -10% and Vaccinia mCherry inactive.
`COc1cc2cc(CNc3ccc(C)cc3)c(=O)n(CC(=O)Nc3ccc(F)cc3F)c2cc1OC` gave Vaccinia Venus -4% and Vaccinia mCherry -13%.
For CCOC(=O)CN1C(=O)CC(c2ccccc2)C1=O (stereo unspecified) the results were Vaccinia Venus -6% and Vaccinia mCherry inactive.
O=C(Nc1cnn(C23CC4CC(CC(C4)C2)C3)c1)c1cnn2cccnc12 was read as Vaccinia Venus -14% and Vaccinia mCherry -28%.
COc1cccc(-c2nc(CCl)cs2)c1OC was read as Vaccinia Venus -6% and Vaccinia mCherry -14%.
Screening O=C(OC1CCOC1=O)c1cc(-c2cccc(Br)c2)nc2ccccc12 (stereo unspecified) returned Vaccinia Venus -6% and Vaccinia mCherry -1%.
Screening CC(=O)c1ccc(N2CCN(C(=O)Cc3n[nH]c(=O)c4ccccc34)CC2)cc1 returned Vaccinia Venus -3% and Vaccinia mCherry inactive.
Screening CS(=O)(=O)N1CCN(c2ccccc2NC(=S)NC(=O)c2ccccc2[N+](=O)[O-])CC1 returned Vaccinia Venus -1% and Vaccinia mCherry -9%.
Cc1cc(C)nc(N2CCN(C(=O)CCC(=O)Nc3nnc(C(C)C)s3)CC2)n1 was read as Vaccinia Venus -5%[7.34 µM] and Vaccinia mCherry inactive[7.34 µM].
Screening C[C@@]12CCC=C[C@H]1[C@H](c1ccoc1)N(Cc1ccccc1)C2=O returned Vaccinia Venus -19% and Vaccinia mCherry inactive.

Bioassay records from PubChem BioAssay.

Hits appear at their usual frequency; any-hit rate near 0.82%.
